N370S GC: qHTS Assay for Inhibitors and Activators of N370S glucocerebrosidase as a Potential Chaperone Treatment of Gaucher Disease | Potency, µM (highest dose often 59.4 µM), for the others: top-dose activity change, negative = inhibition, most hits filed as inhibitors | AID 2101, 2009 | 330,000 compounds, 0.092% hits | N370S GC spleen homogenate, 4MU-glucoside fluorescence;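 also: 0% = full enzyme activity and -100% = no enzyme basal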
FEN1 inh: qHTS Assay for the Inhibitors of Human Flap endonuclease 1 (FEN1); 390,000 compounds, 0.35% hits; Recombinant FEN1 flap cleavage, fluorescence, 15 min; Potency, µM (top dose mostly 114 µM), for inactives: at the top dose activity change, negative = inhibition, hits mostly inhibitors; AID 588795, 2011; P39748; also: nearly all actives have a fitted effect of over 65% in size
Target sequence (P39748 whole entry, looked up): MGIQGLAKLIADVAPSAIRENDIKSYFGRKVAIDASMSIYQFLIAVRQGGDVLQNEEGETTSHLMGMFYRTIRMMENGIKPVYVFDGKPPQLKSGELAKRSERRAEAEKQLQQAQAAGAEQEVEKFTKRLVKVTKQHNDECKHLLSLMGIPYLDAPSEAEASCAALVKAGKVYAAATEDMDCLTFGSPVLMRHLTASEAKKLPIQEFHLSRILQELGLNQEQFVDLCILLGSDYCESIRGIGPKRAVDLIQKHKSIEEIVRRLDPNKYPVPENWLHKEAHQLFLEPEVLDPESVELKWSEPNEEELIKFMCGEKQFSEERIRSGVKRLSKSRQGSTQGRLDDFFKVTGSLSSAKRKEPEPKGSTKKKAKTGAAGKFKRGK
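Enzyme 10 nM, 15 min RT preincubation with compound; start with substrate 50 nM final; reads at 0 and 15 min; qHTS titration, four-parameter Hill fit.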
The depositor's hits bear a star; & = joins results of further samples; [ ] = another dose, or the depositor's remark. Calls follow the shape of the dose curve; as a rule, active = well fitted curve in the direction sought with a large enough effect; inconclusive = small, poorly fitted or top-dose-only effect, or another doubt; inactive = no such curve, though single readings can be large; an effect the other way counts as inactive or inconclusive. Unless noted, % is scaled to controls: 0 for no effect and ±100 for the full control effect; potency is read from the fitted curve at half-maximal effect. Not all compounds are listed; most or all hits stand in other tables.

How did COCc1nnc(NC(=O)CC(C)c2ccccc2)s1 (stereo not given) do in these assays?
N370S GC: 2%; FEN1 inh: 6%

What do the screens show for `CCCn1c(N)c(N2CCCCC2)c(=O)n(CC(=O)Nc2ccccc2)c1=O`?
N370S GC: -9%; FEN1 inh: -8%

How did CN1CCN(C(=O)c2ccc3c(c2)N(Cc2cccc(Cl)c2)C(=O)c2ccccc2S3(=O)=O)CC1 do in these assays?
N370S GC: -6%; FEN1 inh: 0%&-7%

Results for CC(C)(C)C(=O)O/N=C1/C(=O)N(c2ccccc2)c2ccccc21 ?
N370S GC: -1%[12.8 µM]; FEN1 inh: -1%

What do the screens show for `COc1ccc(-n2c(SCC(N)=O)nc3c(oc4ccccc43)c2=O)cc1`?
FEN1 inh: 18%

How did CCCN1C(=O)/C(=C/c2ccc(C)o2)NC1=S do in these assays?
N370S GC: 21%

What do the screens show for `Cc1ccc2[nH]c(=O)c(C(c3nnnn3CCc3ccccc3)N3CCOCC3)cc2c1` (stereo not given)?
N370S GC: 6%; FEN1 inh: 6%

How did COc1ccc(Nc2nc3ccccc3n3cnnc23)cc1 do in these assays?
N370S GC: -7%; FEN1 inh: -10%

Results for CC(=O)Oc1ccc(C(=O)O)cc1OC(C)=O ?
N370S GC: 10%; FEN1 inh: -3%

What do the screens show for `CCn1c(CCNC(=O)c2ccco2)nc2ccccc21`?
N370S GC: -5%; FEN1 inh: 3%

Results for Cc1ccnn1CCSCC(=O)O ?
N370S GC: 1%; FEN1 inh: -18%

What do the screens show for `CC(=O)Nc1ccc(NC(=O)CSc2ccc3nnc(CCNC(=O)c4ccccc4)n3n2)cc1`?
N370S GC: 8%; FEN1 inh: -21%

Of the compounds above, 2 contain an aryl methoxy group.
What do the screens show for `COc1ccc(-n2c(SCC(N)=O)nc3c(oc4ccccc43)c2=O)cc1`?
FEN1 inh: 18%

How did COc1ccc(Nc2nc3ccccc3n3cnnc23)cc1 do in these assays?
N370S GC: -7%; FEN1 inh: -10%

Continued.
How did CC(=O)c1cc(Cl)ccc1OCc1cccc(S(=O)(=O)N2CCOCC2)c1 do in these assays?
N370S GC: -3%; FEN1 inh: -16%

What do the screens show for `CCC(=O)N1CCCc2cc(S(=O)(=O)N3CCN(c4ccccc4F)CC3)ccc21`?
N370S GC: 9%; FEN1 inh: -23%

Results for O=C(NCCSc1c[nH]c2ccccc12)C1CC1 ?
N370S GC: 3%; FEN1 inh: -15%

How did CC12CN3CC(C)(CN(C1)C31C(=O)N(Cc3ccccc3)c3ccccc31)C2=O (stereo not given) do in these assays?
N370S GC: -4%

What do the screens show for `COc1cccc(NC(=O)CSc2nc(=O)n(Cc3cccnc3)c3c2CCC3)c1`?
FEN1 inh: 1%

What do the screens show for `N#Cc1nc(-c2ccco2)oc1NCCCn1ccnc1`?
N370S GC: 7%; FEN1 inh: -7%

How did CCOc1ccc(NC(=O)[C@@H]2CCCN2C(=O)c2cccs2)cc1S(=O)(=O)N1CCOCC1 do in these assays?
FEN1 inh: 18%

Results for C/C(=N\N=C\c1ccc(N(C)C)cc1)c1cccc([N+](=O)[O-])c1 ?
N370S GC: -4%; FEN1 inh: -4%

How did CC12CC3CC(C)(C1)CC(C(=O)N1CCN(C(=O)C4CCCO4)CC1)(C3)C2 (stereo not given) do in these assays?
N370S GC: 0%; FEN1 inh: -2%

What do the screens show for `Cc1ccc(S(=O)(=O)N[C@H](C(=O)OCC(=O)NC(=O)c2cccn2C)C(C)C)cc1`?
FEN1 inh: -1%

How did CCc1cc2c(N[C@@H](C)C(=O)O)ncnc2s1 do in these assays?
N370S GC: 13%; FEN1 inh: -11%

Results for COc1ccc(-c2sc(NC(C)=O)nc2-c2ccccc2)cc1 ?
N370S GC: 1%; FEN1 inh: -13%

How did Cc1ccc(C(=O)NCCOc2cccc3cccnc23)cc1Cl do in these assays?
N370S GC: 14%; FEN1 inh: -9%

How did CCc1cc2c(=O)c(-c3cscn3)coc2cc1OC do in these assays?
N370S GC: 8%

What do the screens show for `CC1=CC(=O)C2=C(C)CC[C@@H]3[C@@H](OC(=O)[C@H]3C)[C@H]12`?
N370S GC: 5%[21.6 µM]

How did COc1ccc(CNC(=O)c2sc3nc4c(c(C(F)(F)F)c3c2N)CCC4)cc1 do in these assays?
N370S GC: 2%

Results for Cc1cc(=O)[nH]c(SCC(=O)Nc2c(C)n(C)n(-c3ccccc3)c2=O)n1 ?
FEN1 inh: -1%

How did CCCCn1nc2cc(C(=O)NC3CCCc4ccccc43)ccc2c1OCC (stereo not given) do in these assays?
N370S GC: 19%; FEN1 inh: 6%

How did COc1ccc(C2/C(=C(/O)c3ccc4c(c3)CC(C)O4)C(=O)C(=O)N2CCN2CCOCC2)cc1 (stereo not given) do in these assays?
N370S GC: -15%; FEN1 inh: -4%

What do the screens show for `CCOc1ccc(N(CC(=O)NCc2ccc(F)cc2)C(=O)CCC(=O)Nc2nccs2)cc1`?
N370S GC: -7%; FEN1 inh: -2%

Results for CCc1ccc(NC(=O)/C(C#N)=C\c2ccc(OC)c(C(=O)O)c2)cc1 ?
N370S GC: 7%; FEN1 inh: 5%

How did C/C=C(\C)C(=O)O[C@@H]([C@H](O)c1cc2ccc(=O)oc2cc1OC)C(C)(C)O do in these assays?
FEN1 inh: 6%

What do the screens show for `CCOCCCn1c(-c2ccc(Cl)cc2)n[nH]c1=S`?
N370S GC: -3%; FEN1 inh: -4%

How did CCC1CCCCN1CCCNC(=O)c1c(O)nc2c(C)cccn2c1=O (stereo not given) do in these assays?
N370S GC: 7%; FEN1 inh: -7%&-14%

Results for CC(C)Cn1c(N)c(C(=O)COC(=O)c2cc3ccccc3cc2O)c(=O)n(C)c1=O ?
FEN1 inh: 11%

Results for Cc1cccc2sc(NC(=O)c3cccc(S(=O)(=O)N4CCc5ccccc54)c3)nc12 ?
N370S GC: -11%; FEN1 inh: -2%

What do the screens show for `CC(Oc1ccc(F)cc1)C(=O)Nc1ccccc1C(=O)NC1CC1` (stereo not given)?
N370S GC: -1%; FEN1 inh: -1%

Results for CC(C)CN(CC(C)C)C(=O)c1cc(S(=O)(=O)N2CCCCC2)c[nH]1 ?
N370S GC: -5%; FEN1 inh: 0%

How did Fc1ccc(Nc2c(-c3ccccn3)nc3ccc(Cl)cn23)cc1 do in these assays?
FEN1 inh: 17%

Results for CN(C)c1ccncc1C(=O)Nc1ccc(F)cc1F ?
N370S GC: 9%; FEN1 inh: 4%

What do the screens show for `O=C(CSc1ncnc2c1nnn2Cc1ccccc1)NC1CCCCC1`?
N370S GC: -8%; FEN1 inh: 6%

What do the screens show for `CCS(=O)(=O)c1ncc(Cl)c(C(=O)N(Cc2ccccc2)Cc2ccco2)n1`?
FEN1 inh: -10%

What do the screens show for `CC(Sc1nnc(Cc2cccs2)n1C1CCCCC1)C(N)=O` (stereo not given)?
N370S GC: 5%; FEN1 inh: -1%

What do the screens show for `CCN(C(=O)CSc1ncccc1C(=O)O)C1CCCCC1`?
N370S GC: -9%; FEN1 inh: -3%

What do the screens show for `CCCCn1c(NC(=S)Nc2ccccc2)nc2ccccc21`?
N370S GC: 8%; FEN1 inh: -9%

Results for CCOC(=O)CN1N=C(/C=C/c2ccc(OC)cc2)CCC1=O ?
N370S GC: -8%; FEN1 inh: -5%

Results for Cc1cc(C(=O)OCC(=O)N2CCOCC2)c2ccccc2n1 ?
N370S GC: 7%; FEN1 inh: -2%

Results for CCOc1ccc(CCNC(=O)COC(=O)c2cc([N+](=O)[O-])ccc2N2CCOCC2)cc1OCC ?
N370S GC: 0%; FEN1 inh: -6%

How did CCN1CCN(CCNC(=O)C2CCN(Cc3nc(-c4ccc(Cl)cc4)oc3C)CC2)CC1 do in these assays?
N370S GC: -18%

What do the screens show for `CC(=O)n1cc([C@@H]2C=C(C(=O)N3CCN(Cc4ccc5c(c4)OCO5)CC3)O[C@H](OCc3ccc(CO)cc3)C2)c2ccccc21`?
N370S GC: inconclusive; FEN1 inh: -10%

How did CCOc1ccc(NC(=O)C(=O)NCCCn2ccnc2)cc1 do in these assays?
N370S GC: -8%; FEN1 inh: 0%

Results for O=C(NCC(c1ccco1)N1CCCC1)c1cccc(S(=O)(=O)Nc2ccc(Br)cc2)c1 (stereo not given) ?
N370S GC: inconclusive; FEN1 inh: 11%

Results for COc1ccc(C(C[N+](=O)[O-])c2c(C)cc3ccccn23)c(OC)c1 (stereo not given) ?
N370S GC: -4%; FEN1 inh: 4%

Results for CC(C)C1NC(=S)N(C2CCCCC2)C1=O (stereo not given) ?
N370S GC: 27%; FEN1 inh: -3%

How did Cc1ccc(CNS(=O)(=O)c2ccc(-n3cnnn3)c(C)c2)cc1 do in these assays?
N370S GC: -3%; FEN1 inh: -1%

How did O=C(Nc1cccc(C(F)(F)F)c1)N1CCC(c2nc(-c3ccc(F)cc3)no2)CC1 do in these assays?
N370S GC: 1%; FEN1 inh: -13%

Results for CCCn1c2ccccc2c2cnn(CC(=O)NC(C)CC)c(=O)c21 (stereo not given) ?
N370S GC: -7%; FEN1 inh: -8%&-8%

What do the screens show for `CCn1c(SCC(=O)N/N=C/C=C\c2ccccc2[N+](=O)[O-])nc2ccccc21`?
N370S GC: -7%; FEN1 inh: 10%

What do the screens show for `COc1ccc(NS(=O)(=O)N2CCOCC2)cc1`?
N370S GC: -9%; FEN1 inh: -3%

Results for Cc1ccccc1C(=O)Nc1nnc(S(=O)(=O)N2CCCc3ccccc32)s1 ?
FEN1 inh: 7%

What do the screens show for `COc1ccc(C2C(C#N)=C(N)N3C(=C2C#N)Sc2ccccc23)cc1` (stereo not given)?
N370S GC: 3%

How did CCc1ccc(OS(=O)(=O)c2cn(C)c(=O)n(C)c2=O)cc1 do in these assays?
N370S GC: -2%; FEN1 inh: 4%

What do the screens show for `CC(C(=O)NCCc1nc2ccccc2[nH]1)n1cc([N+](=O)[O-])cn1` (stereo not given)?
N370S GC: -7%; FEN1 inh: 4%

Results for CN(Cc1ccccc1)C(=O)c1ccc(NC(=O)Cc2cccc(NC(=O)C3CCCN(C(=O)C4CCCC4)C3)c2)cc1 (stereo not given) ?
FEN1 inh: 14%

How did Cc1cc(C)c2[nH]c(=O)c(CN(Cc3ccc4c(c3)OCO4)Cc3nnnn3C3CCCC3)cc2c1 do in these assays?
N370S GC: -2%; FEN1 inh: -20%

What do the screens show for `N#Cc1c(OCC(=O)c2ccccc2)nc2c(c1-c1ccco1)CCc1ccccc1-2`?
N370S GC: 10%; FEN1 inh: 0%

What do the screens show for `c1ccc(-c2nccc(-c3ccc(-n4cnc5ccccc54)cc3)n2)cc1`?
N370S GC: -1%; FEN1 inh: inconclusive

Results for CCOC(=O)N1CCN(C(=O)c2ccc3c(c2)N(Cc2cc(C)ccc2C)C(=O)c2ccccc2S3=O)CC1 (stereo not given) ?
N370S GC: -23%; FEN1 inh: 14%&-7%

How did O=C(OCc1ccccc1)N1CCCC1/C=C/CN1CCOCC1 (stereo not given) do in these assays?
N370S GC: 3%; FEN1 inh: -9%

Results for O=C(Nc1ccc(Cl)cc1)Nc1nc(-c2sccc2Br)cs1 ?
N370S GC: 7%; FEN1 inh: 12%

Results for CN(CC(=O)Nc1cccc(F)c1)CC(=O)Nc1cc(S(=O)(=O)N2CCOCC2)ccc1Cl ?
FEN1 inh: -15%

How did COc1ccc(S(=O)(=O)N2CCN(CC(=O)NC(Cc3ccccc3)C(C)=O)CC2)cc1 (stereo not given) do in these assays?
FEN1 inh: -5%

How did O=C(COC(=O)c1ccccc1NS(=O)(=O)c1ccc(Cl)cc1)NCc1ccccc1 do in these assays?
N370S GC: -6%; FEN1 inh: 1%

Results for OCC1CCCN(c2ncnc3scc(-c4ccccc4)c23)C1 (stereo not given) ?
N370S GC: 13%; FEN1 inh: -8%

What do the screens show for `CCC1Nc2ncnc(N3CCCCC3)c2N(Cc2ccc(OC)cc2)C1=O` (stereo not given)?
FEN1 inh: 16%

Results for O=C1NC(=S)N/C1=C\c1cccnc1 ?
N370S GC: -6%; FEN1 inh: 3%

How did CCOc1ccc(C(=O)CCC(=O)N2CCN(c3ccc(O)cc3)CC2)cc1 do in these assays?
FEN1 inh: -2%

How did CC(=O)NS(=O)(=O)c1ccc(NC(=O)CN2C(=O)C3C4C=CC(C4)C3C2=O)cc1 (stereo not given) do in these assays?
N370S GC: 12%; FEN1 inh: -11%

How did Cc1ccc(-n2c3c(c(=O)[nH]c2=O)C(NS(=O)(=O)c2ccc(Cl)cc2)(C(F)(F)F)C(=O)N3)cc1 (stereo not given) do in these assays?
N370S GC: 0%; FEN1 inh: 1%&-3%

Results for COc1cc(CN2CCc3nc(Nc4ccc5c(c4)OCCO5)ncc3C2)cc(OC)c1OC ?
FEN1 inh: 2%

In the list so far, six have a thiophene ring, fused or not.
How did CCOc1ccc(NC(=O)[C@@H]2CCCN2C(=O)c2cccs2)cc1S(=O)(=O)N1CCOCC1 do in these assays?
FEN1 inh: 18%

How did CCc1cc2c(N[C@@H](C)C(=O)O)ncnc2s1 do in these assays?
N370S GC: 13%; FEN1 inh: -11%

How did COc1ccc(CNC(=O)c2sc3nc4c(c(C(F)(F)F)c3c2N)CCC4)cc1 do in these assays?
N370S GC: 2%

What do the screens show for `CC(Sc1nnc(Cc2cccs2)n1C1CCCCC1)C(N)=O` (stereo not given)?
N370S GC: 5%; FEN1 inh: -1%

Results for O=C(Nc1ccc(Cl)cc1)Nc1nc(-c2sccc2Br)cs1 ?
N370S GC: 7%; FEN1 inh: 12%

Results for OCC1CCCN(c2ncnc3scc(-c4ccccc4)c23)C1 (stereo not given) ?
N370S GC: 13%; FEN1 inh: -8%
